# Bioassay records from PubChem BioAssay.
# CBX7 AlphaScr: inhibitors of human CBX7 binding to H3K27me3 peptide; AlphaScreen His6-CBX7 / biotin-H3K27me3 peptide binding; stronger effect = lower value; actives 1.1% (n = 66,000); normalised signal (fraction of DMSO) (concentration not given with the values); AID 1224903; in the data active = normalised signal below about 0.5;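 note: 100 nL library stock added to about 20 µL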
# Target sequence (O95931 whole entry, looked up): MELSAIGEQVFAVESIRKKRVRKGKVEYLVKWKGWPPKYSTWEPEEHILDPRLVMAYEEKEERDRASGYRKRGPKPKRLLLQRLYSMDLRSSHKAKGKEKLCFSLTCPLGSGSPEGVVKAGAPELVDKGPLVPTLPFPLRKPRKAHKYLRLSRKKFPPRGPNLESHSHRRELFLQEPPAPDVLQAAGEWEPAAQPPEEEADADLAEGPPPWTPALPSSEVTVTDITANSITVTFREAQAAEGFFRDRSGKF
# CBX7 AlphaScr z-score: further read-out of CBX7 AlphaScr, marked with its call; z-score; measured here: z-score of CBX7 signal; some inactives read as strong as hits; reference of the scale not given here;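 same signal on another scale; lower means less binding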
# * hit, by the source's call; & = joins results of further samples.
# Every second line gives: CBX7 AlphaScr | CBX7 AlphaScr z-score
O=S(=O)(Nc1cccc(C(F)(F)F)c1)c1cnc[nH]1
  0.99 | -0.26
COc1ccc(C2C(C(=O)NC3CCCCC3)CCC(=O)N2c2ccc(OC)cc2)cc1 (configuration not stated)
  1 | -0.0093
Cc1ccc(Cn2c(=N)n(CC(=O)c3ccc(Cl)cc3)c3ccccc32)cc1
  1.1 | 0.64
CCCN1C(=O)C(O)(CC(=O)c2ccc(C(C)C)cc2)c2ccccc21 (configuration not stated)
  0.84 | -0.18
Oc1ccc(-c2nc3cnccn3c2Nc2ccc3c(c2)OCCO3)cc1
  1.1 | 0.81
CCOC(=O)c1cnc2c(C(F)(F)F)cccc2c1NCCN(C)C
  1.1 | 3.1
O=C(CN1C(=O)CSc2ccc(S(=O)(=O)N3CCOCC3)cc21)NC1CCCCCCC1
  0.84 | -1.9
COc1cc(NC(=O)C2CCCCC2)c2ncccc2c1
  1.1 | 2.2
CCOC(=O)c1ccc2c(c1)N(C)C(=O)c1ccccc1S2
  1 | 0.82
O=C(NCc1ccccc1)C(=O)Nc1ccc(Cl)cc1
  1 | -0.0025
Cc1ccc(-n2c3c(cc(C(=O)Nc4ccc(N(C)C)cc4)c2=O)C(=O)CCC3)cc1
  0.85 | -0.63
CN(CCc1ccccn1)C1CCN(Cc2ccccc2)CC1
  1 | 0.84
Cc1ccc(OCC(=O)Nc2cc(-c3nn4c(C)nnc4s3)ccc2C)cc1
  1 | 0.26
FC(F)(F)c1cc(-c2cccs2)nc(NCCc2ccccc2)n1
  1.9 | 6.9
Cc1ccc(-c2nc(SCC(=O)Nc3nccs3)c(-c3ccccc3)[nH]2)cc1
  0.96 | -0.71
O=C1CCN(C(=O)C(F)(F)F)c2cc(Br)ccc2N1
  1 | 0.29
Cc1ccc2cc(CCNC(=O)CC3CCCCC3)c(=O)[nH]c2c1C
  1.1 | 1.7
CC1(C)CC2CC(C)(CN2C(=O)C2CC(c3ccc(F)cc3)=NO2)C1 (configuration not stated)
  0.99 | -0.61
COc1ccc(Cl)cc1NC(=O)c1cn(-c2ccc(Cl)cc2)c(=O)c2ccccc12
  1 | 0.42
Cc1cc(NC(=O)CSc2nc(NCc3ccccc3)c3ccccc3n2)no1
  1 | 0.082

# An excerpt from the list above, for reference:
# Every second line gives: CBX7 AlphaScr | CBX7 AlphaScr z-score
O=S(=O)(Nc1cccc(C(F)(F)F)c1)c1cnc[nH]1
  0.99 | -0.26
COc1ccc(C2C(C(=O)NC3CCCCC3)CCC(=O)N2c2ccc(OC)cc2)cc1 (configuration not stated)
  1 | -0.0093
Cc1ccc(Cn2c(=N)n(CC(=O)c3ccc(Cl)cc3)c3ccccc32)cc1
  1.1 | 0.64
CCCN1C(=O)C(O)(CC(=O)c2ccc(C(C)C)cc2)c2ccccc21 (configuration not stated)
  0.84 | -0.18

# New compounds follow:
# Every second line gives: CBX7 AlphaScr | CBX7 AlphaScr z-score
COc1ccc(NC(=O)c2cc(CC(C)C)on2)cc1
  1.2 | 1.3
Cc1cc(C)cc(NC(=O)c2c(C)c(-c3ccc(Cl)cc3Cl)nc3ccccc23)c1
  1 | 0.4
O=C(COc1ccc(Cl)cc1)NCc1nnc(SCC(=O)Nc2nc3ccccc3s2)o1
  0.88 | -1.8
O=c1oc2ccccc2cc1-c1csc(-c2cc3ccc(O)cc3oc2=O)n1
  0.8 | -3.2
CCOc1ccc(CNc2sc3c(c2C(=O)Nc2cc(OC)ccc2OC)CCC3)cc1
  0.95 | -0.5
CC(NC(=O)C(=O)NCc1ccccn1)C(c1cccs1)N1CCN(c2ccccc2)CC1 (configuration not stated)
  0.86 | -1.4
O=C(Cn1ncc2c1-c1ccccc1OC2)NCc1ccc(F)cc1
  1.2 | 2
Cc1nc2cc(-c3ccccc3)nn2c(C)c1CCC(=O)NCc1cccc(Cl)c1
  1 | -0.034
CC(C)(C)c1ccc2c(c1)N(CC(=O)NCc1ccc(F)cc1Cl)C(=O)CO2
  0.91 | -1.6
Cc1ccccc1C(=O)Nc1sc2c(c1C(=O)NCc1cccnc1)CCCCC2
  1 | -0.021
O=C(CN1C(=O)CCSc2ccccc21)N1CCCCCC1
  0.98 | -0.43
COc1ccccc1Cc1nc2ccccc2nc1SCC(=O)Nc1ccc(C)c(Cl)c1
  0.97 | -0.43
CCc1cc(-c2nc(-c3ccc(Br)cc3)cs2)ccn1
  0.93 | -0.66
CC(Cc1c[nH]c2ccccc12)Nc1ccc2ccccc2n1 (configuration not stated)
  0.98 | -0.28
CCN1CCN(c2oc(COc3ccccc3C)nc2C#N)CC1
  0.83 | -1
COc1cccc(Nc2nc(-c3ccc(C)cc3)cs2)c1
  0.67&0.82 | -5.1&-6.8
Cc1cccc(OCC(=O)N(Cc2ccc(C(C)C)cc2)C2CCS(=O)(=O)C2)c1 (configuration not stated)
  1.1 | 1.1
O=C(Cc1c(C(=O)O)[nH]c2ccccc12)Nc1ccc(Oc2ccccc2)cc1
  1.1 | 1.8
COc1ccc(CNc2ccc3c(c2)ncn3C(C)(C)C)cc1
  0.55 | -13
COc1cccc(-c2cc(C(=O)Nc3ccc(Br)cc3)no2)c1
  1.1 | 0.53
COc1ccc(CCN2C(=O)CC2(C(=O)NC2CCCCC2)c2ccc(Cl)cc2)cc1OC (configuration not stated)
  0.93 | -1.6
CC1CC(C)CN(CCCNC(=O)C2CCN(C(=O)c3cc4sccc4n3C)CC2)C1 (configuration not stated)
  1 | 0.82
CC(C)NC(=O)c1cc(Nc2ccccc2)nc2ccccc12
  1.1 | 3.3
O=C(c1ccc(C#CC2(O)CCCCC2)cc1)N1CCN(c2cccc(C(F)(F)F)c2)CC1
  0.84 | -0.37
Cc1cc2nc(-c3cc(N)ccc3O)oc2cc1C
  0.76 | -3.7
C=CCn1c(SCc2ccccc2)nnc1-c1ccc2[nH]c(C)c(C)c2c1
  0.93 | -1.9
COc1ccc(NC(=O)c2c(-c3c(F)cccc3Cl)noc2C)c(OC)c1
  0.97 | -0.39
COc1ccccc1N1CCN(c2ncc(C(=O)N3CC(C)CC(C)C3)c3ccccc23)CC1 (configuration not stated)
  0.67 | -2.1
COc1cccc(CNC(=O)CCNC(=O)Cn2ccc3ccccc3c2=O)c1
  1 | 0.34
Brc1ccc(-c2nc(-c3ccccn3)no2)cc1
  0.94 | -0.55
CCOC(=O)c1ccc(NC(=O)c2cc3c(n(-c4ccc(C)cc4)c2=O)CCCC3=O)cc1
  1.4 | 4.2
CCC(=O)N1CCc2cc(S(=O)(=O)N3CC=C(c4ccccc4)CC3)ccc21
  0.98 | -0.17
COc1ccc(OC)c(NC(=O)c2ccc3c(c2)C(=O)N(c2ccc(Cl)cc2)C3=O)c1
  1 | 0.58
Cc1ccc(C)c(N2CCN(C(=O)CSCc3cnn(-c4ccccc4)c3-n3cccc3)CC2)c1
  1 | 0.22
Cc1ccc(NC(=O)Cn2cnc3scc(-c4ccccc4)c3c2=O)c(C)c1
  0.94 | -1.6
Cc1ccc(C(=O)NCCOc2cccc3cccnc23)cc1
  0.9 | -1.8
COc1ccc(Nc2cc(C(=O)NCCCN3CCCC3)c3ccccc3n2)cc1OC
  0.72 | -5.4
COc1ccc(OCc2nc(-c3ccccc3Cl)no2)cc1
  1.5 | 0.56
CC12C=CC(C)(O1)C1C(=O)N(c3ccc(Cl)cc3)C(=O)C12 (configuration not stated)
  0.91 | -1.5
FC(F)(F)c1cc(Cl)c2nc(-c3ccccc3)c(-c3ccccc3)nc2c1
  1.2 | 1.6
CCN(CC)CCNc1cc(C)nc2c(-c3ccc(Cl)cc3)c(C)nn12
  1.2 | 1.2
Cc1ccc(OCC(=O)Nc2c(C(=O)c3ccc(Br)cc3)oc3ccccc23)cc1
  1.1 | 0.38
O=C(C1CCN(S(=O)(=O)c2cccnc2)CC1)N1CCc2ccccc2C1
  1.1 | 2.6
Cc1ccc(-c2cc3nc4c(c(C(F)(F)F)n3n2)CCC4)cc1
  0.96 | -0.44
Cc1ccn2c(NC(=O)c3ccc(C)c(C)c3)c(-c3ccccc3)nc2c1
  0.93 | -0.13
CCOC(=O)c1ccccc1Nc1cc(C)nc2nc(C)nn12
  0.96 | -1.3
O=C(Nc1ccccc1)N1CCC(N2CCCCC2)CC1
  1 | 0.65
Cc1ccc2c(c1)C(O)(C1COC(C)(C)CC1=O)C(=O)N2C (configuration not stated)
  0.98 | -0.42
Cc1ccc(CN2CCN(CC(=O)N3CC(C)CC(C)C3)C2=O)cc1 (configuration not stated)
  1 | -0.053
Cc1cc(C)c(NC(=O)C2CCCN2c2ccccc2)c(C)c1 (configuration not stated)
  0.9 | -1.3
Cc1ccn2c(Nc3ccc(C(C)C)cc3)c(-c3ccsc3)nc2c1
  1 | 0.17
CCCCN(CCCC)S(=O)(=O)c1ccc2oc(C(=O)N3CCC4(CC3)OCCO4)c(C)c2c1
  0.9 | -2.4
CC1CC(C)CN(S(=O)(=O)c2ccc(C(=O)Nc3nnc(C4CC4)o3)cc2)C1 (configuration not stated)
  0.065* | -2.6*
Fc1cccc(Nc2nc3nonc3nc2Nc2cccc(F)c2)c1
  1 | 1.2
CCOc1ccc2c(c1)c(=O)c(S(=O)(=O)c1ccc(C)cc1)cn2Cc1cccc(OC)c1
  0.94 | -2.2
COc1ccccc1NCc1nc2ccccc2n1CCOc1ccc(C)cc1
  0.82 | -6.6
COc1ccc(N2CCN(CC(O)COc3ccc(F)cc3)CC2)cc1 (configuration not stated)
  0.96 | -0.47
COc1ccc(-c2nc3cc(NS(=O)(=O)c4ccccc4)ccc3o2)cc1Br
  1 | 0.84
CC(CCc1ccccc1)NC(=O)Cc1c(C(=O)O)[nH]c2ccc(Cl)cc12 (configuration not stated)
  1 | 1.2
CS(=O)(=O)c1nc2ccccc2n1Cc1ccccc1Cl
  1 | 0.34

# Next entries.
Molecule	CBX7 AlphaScr	CBX7 AlphaScr z-score
O=C(Nc1ccc(Cl)cc1)C1CCN(S(=O)(=O)c2cnc[nH]2)CC1	1.1	0.25
COc1ccccc1-c1cc2nc(C)c(CCC(=O)O)c(C)n2n1	0.95	-0.71
COc1ccccc1N1CCN(c2nnc(Cc3cccnc3)c3ccccc23)CC1	1	0.2
COc1ccc(-c2cc(C(=O)NC(C)C)no2)cc1	1.2	1.4
O=S(=O)(c1ccccc1)c1nc(-c2cccc(Cl)c2)oc1NCc1ccccc1	0.81	-1.8
O=C(Nc1ccc(N2CCCC2=O)cc1)c1ncn[nH]1	0.0091*	-9.7*
c1cnc2c(OCc3cn4cccnc4n3)cccc2c1	0.54	-2.1
CCCCCn1c(=O)[nH]c2cc(C(=O)NCC3CCCO3)ccc2c1=O (configuration not stated)	1	0.26
O=C(NCCCN1CCCCCC1)C1CCN(c2nnc(-n3cccc3)s2)CC1	1.8	8.6
CCOc1cc(-c2ccc(O)c(OC)c2)cc(=O)c2c(C)oc(C)c12	0.77	-0.46
CCOC(=O)c1c(C(=O)c2ccccc2)c2cc(OC)ccc2n1C	1.1	3.2
Cc1c(NC(=O)c2cccnc2)cccc1-c1nc2ccccc2o1	1	0.0083
COc1ccc(-c2nn(C)c3sc(C(=O)Nc4cccc(Cl)c4)cc23)cc1OC	1.2	6.3
COc1ccccc1CNC(=O)CN1C(=O)COc2ccc(C)cc21	1	0.021
Cc1cccc2c1-c1sc(C(=O)N(C)c3ccc(F)cc3)cc1CO2	1	0.23
COc1ccccc1Nc1cc(C(=O)NCc2ccc(Cl)cc2)c2ccccc2n1	1.1	1.9
COC(=O)c1ccc(NC(=O)CCCN2C(=O)c3cccnc3C2=O)cc1	1.1	0.97
COc1ccc(Nc2ncc(C(=O)Nc3ccc(F)cc3)c3ccccc23)cc1	0.94	-0.99
COc1cccc(-c2cc(C(=O)Nc3ccccc3C(C)C)c3ccccc3n2)c1	1	0.91
CCOC(=O)c1sc(NC(=O)c2ccc(OC)c(Cl)c2)nc1C	1.1	1.3
O=C(NCCCN1CCN(c2ccc(F)cc2)CC1)Nc1cccc2ccccc12	0.96	-0.96
COc1ccccc1CNC(=O)Cc1c(C(=O)O)[nH]c2ccc(Cl)cc12	1.1	1.1
CCOCCCNC(=O)c1cc(Sc2nnc(C)s2)nc2ccccc12	1	0.41
FC(F)(F)C(F)(F)C(F)(F)c1nnc2ccc(Cl)nn12	1.1	1.5
Cc1ccc(N2C(=O)CC(c3cccnc3)C3=C2CCCC3=O)cc1 (configuration not stated)	1.2	1.9
O=C(Nc1ccc(Oc2ccc(Cl)c3ccccc23)c(Cl)c1)c1cccs1	1.3	2.1
Cc1ccc(-c2csc(NC(=O)c3ccc(S(=O)(=O)N4CC(C)CC(C)C4)cc3)n2)c(C)c1 (configuration not stated)	0.96	-1.3
O=c1c2c3c(sc2nc(Cc2ccccc2)n1Cc1c(F)cccc1Cl)CCCC3	1.1	2.2
Cc1cccc(-c2nc(CN3CCCC(C(=O)NC4CCC(C)CC4)C3)c(C)o2)c1 (configuration not stated)	1	0.59
Cc1ccc(Cl)cc1NC(=O)c1cnn(-c2ccc(F)cc2)c1C1CCNCC1	0.92	-1.5
O=C(c1ccc(CSc2nc3ccncc3[nH]2)cc1)N1CCN(c2ccccc2)CC1	1	0.13
COc1ccc(Cl)cc1Nc1ncnc2sc(C)c(S(=O)(=O)N3CCC(C)CC3)c12	1.3	3.6
COc1ccc(-c2csc(Nc3cc(OC)ccc3OC)n2)cc1	0.75	-8.7
Cc1ccc2c(c1)N(CCCC(=O)NCc1ccccc1)C(=O)CO2	0.99	-0.18
CCCC1CCC(c2ccc(-c3noc(-c4ccncc4)n3)cc2)CC1 (configuration not stated)	1.1	0.12
O=C(Cn1ncc2c1-c1ccccc1OC2)Nc1ccc(S(=O)(=O)N2CCCCC2)cc1	0.74	-1.5
Cc1ccc(NC2c3ccccc3C(=O)N2c2ccccn2)cc1 (configuration not stated)	1	-0.14

# 4 entries out of the list above, sorted by their value in CBX7 AlphaScr z-score, lowest first.
molecule	CBX7 AlphaScr z-score
Cc1ccc(-c2nc(SCC(=O)Nc3nccs3)c(-c3ccccc3)[nH]2)cc1	-0.71
Cc1ccn2c(NC(=O)c3ccc(C)c(C)c3)c(-c3ccccc3)nc2c1	-0.13
Cc1nc2cc(-c3ccccc3)nn2c(C)c1CCC(=O)NCc1cccc(Cl)c1	-0.034
CCOC(=O)c1ccc2c(c1)N(C)C(=O)c1ccccc1S2	0.82

# A portion of the library; rates above refer to the full screens.
